Screens (PubChem)
Cruzain Triton: qHTS Assay for Promiscuous and Specific Inhibitors of Cruzain (with detergent); purified cruzain, Z-FR-AMC fluorescence, 0.01% Triton; Potency, µM, for the others: max response, negative = inhibition, most hits filed as inhibitors; hit rate 0.43% among 200,000; AID 1478, 2009; active = well fitted curve in the direction sought with a large enough effect; inconclusive = small, poorly fitted or top-dose-only effect, or another doubt; inactive = no such curve, though single readings can be large; an effect the other way counts as inactive or inconclusive;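 also: plate controls were neutral wells for no effect and buffer without enzyme for full effect; nearly all actives have a fitted effect of over 40% in size; top concentration of the series not given in the record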
Target sequence (P25779 123-467 limits assumed): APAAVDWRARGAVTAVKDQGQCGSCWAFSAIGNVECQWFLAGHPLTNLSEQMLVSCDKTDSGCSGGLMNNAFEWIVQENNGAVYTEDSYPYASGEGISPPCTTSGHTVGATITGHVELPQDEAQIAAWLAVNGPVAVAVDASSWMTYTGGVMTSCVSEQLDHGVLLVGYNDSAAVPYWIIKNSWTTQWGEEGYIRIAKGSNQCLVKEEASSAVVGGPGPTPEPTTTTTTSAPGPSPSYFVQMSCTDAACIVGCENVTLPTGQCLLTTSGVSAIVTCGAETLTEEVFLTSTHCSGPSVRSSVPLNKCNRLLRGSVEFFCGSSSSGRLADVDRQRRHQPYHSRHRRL
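Detergent-containing run (0.01% Triton X-100) in acetate buffer pH 5.5 with 5 mM DTT: enzyme at 1.5 nM final, 15 min compound preincubation at room temperature, then 2 uM Z-FR-AMC substrate. Activity taken as 60 s fluorescence increase at 360/450 nm.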
SARS PLpro yeast: qHTS of Yeast-based Assay for SARS-CoV PLP; S. cerevisiae expressing SARS-CoV PLpro, growth rescue; control for the full effect not named in the record; Potency, µM (top dose mostly 32.9 µM), inactives show top-dose activity, positive = growth rescue; hit rate 0.19% among 330,000; also: 0% is about no effect; nearly all actives have a fitted effect of over 55% in size; growth read by luminescence after 48 h
Cruzain inh noDet: qHTS Assay for Promiscuous and Specific Inhibitors of Cruzain (without detergent); Cruzipain (Trypanosoma cruzi), P25779; purified cruzain, Z-FR-AMC fluorescence, no detergent; Potency, µM, inactives show max response, negative = inhibition, usual class: inhibitors; hit rate 2.3% among 200,000; active = well fitted curve in the direction sought with a large enough effect; inconclusive = small, poorly fitted or top-dose-only effect, or another doubt; inactive = no such curve, though single readings can be large; an effect the other way counts as inactive or inconclusive;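 also: plate controls were enzyme without inhibitor for no effect and buffer without enzyme for full effect; nearly all actives have a fitted effect of over 40% in size; top concentration of the series not given in the record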
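Detergent-free condition (0.00005% Triton X-100) in acetate buffer pH 5.5 with DTT. 1.5 nM enzyme and compound were pre-mixed 15 min, then 2 uM Z-FR-AMC substrate added; reaction progress from fluorescence change between first and third reads (60 s).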
MARV entry inh: qHTS for inhibitors of binding or entry into cells for Marburg Virus | Marburg virus pseudotyped entry inhibition, cell reporter; control for the full effect not named in the record; about a third of the inactives were read at about 46 µM | hit rate 1.8% among 300,000 | Potency, µM (top dose mostly 37.8 µM), for the others: at the highest dose activity change, negative = inhibition, hits mostly inhibitors; active = well fitted inhibition curve with a large enough effect; inconclusive = small, poorly fitted or top-dose-only effect, or effect the other way; inactive = flat fitted curve, though single readings scatter; tested in HEK293 cells; about a fifth of its hits are not listed in these tables; also: % is scaled to controls: 0 for no effect and ±100 for the full control effect; luciferase read-out
StopGo reporter: High Throughput Screening for Foot and Mouth Disease Virus Antivirals; human cells with a luciferase reporter of 2A StopGo recoding; control for the full effect not named in the record; Potency, µM (doses to about 57.9 µM), for the others: at the highest dose signal change, negative = less light; hit rate 1.2% among 410,000; AID 1159524, 2015; active = well fitted falling curve with a large enough effect; inconclusive = small, poorly fitted or top-dose-only effect; inactive = no such curve, though single readings can be large or run the other way; tested in HEK293T cells; also: % is scaled to controls: 0 for no effect and ±100 for the full control effect; nearly all actives have a fitted effect of over 45% in size; luciferase light after 4 h
LASV entry inh: qHTS for Inhibitors of binding or entry into cells for Lassa Virus | hit rate 1.2% among 300,000 | Lassa virus pseudotype entry inhibition, cell reporter; control for the full effect not named in the record | Potency, µM (top dose mostly 37.9 µM), without a hit: top-dose activity change, negative = inhibition, most hits filed as inhibitors; active means well fitted inhibition curve with a large enough effect; inconclusive means small, poorly fitted or top-dose-only effect, or effect the other way; inactive means flat fitted curve, though single readings scatter; tested in HEK293 cells; also: % is scaled to controls: 0 for no effect and ±100 for the full control effect; nearly all actives have a fitted effect of over 50% in size; luciferase read-out
RE007 growth inh: qHTS Assay for Inhibitors of the HIV-1 protein Vpr; S. pombe RE007 Vpr strain, BacTiter-Glo ATP luminescence, 24 h; control for the full effect not named in the record; Potency, µM (doses to about 92.2 µM), for the others: at the highest dose activity change, negative = less growth; hit rate 0.21% among 360,000; active = well fitted falling curve with a large enough effect; inconclusive = small, poorly fitted or top-dose-only effect; inactive = no such curve, though single readings can be large or run the other way;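 also: % is scaled to controls: 0 for no effect and ±100 for the full control effect; nearly all actives have a fitted effect of over 50% in size; the assay follows cell death caused by Vpr and the record does not say whether a fall means rescue or toxicity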
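Fission yeast strain RE007, carrying one chromosomally integrated HIV-1 vpr copy, was seeded at OD 0.01 in PMG+AL medium with 23 nL pinned compound. After 24 h at 30 °C and 99% humidity, viability was read by BacTiter-Glo luminescence.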
NS1 inh: qHTS Assay for Inhibitors of Influenza NS1 Protein Function; S. cerevisiae slowed by influenza A NS1, growth recovery by OD600; Potency, µM (titrated, usually from 46.1 µM), inactives show at the highest dose activity, positive = more growth; hit rate 0.4% among 270,000; also: actives are rising curves; nearly all actives have a fitted effect of over 50% in size
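Growth recovery, yeast-based: influenza A NS1 expressed in S. cerevisiae causes slow growth, and suppressors are detected by OD600. The parent strain without NS1 is used as positive control.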
The depositor's hits bear a star; ? = inconclusive; nt = not tested or not shown; [ ] = dose if it differs, or a comment. Unless noted, calls follow the shape of the dose curve; as a rule, active means well fitted rising curve with a large enough effect; inconclusive means small, poorly fitted or top-dose-only effect; inactive means no such curve, though single readings can be large or run the other way. Potency is read from the fitted curve at half-maximal effect.

SMILES | Cruzain Triton | SARS PLpro yeast | Cruzain inh noDet | MARV entry inh | StopGo reporter | LASV entry inh | RE007 growth inh | NS1 inh
COC(=O)Cc1c(C)nc(SCc2ccccc2)[nH]c1=O | nt | 1% | nt | nt | 4% | nt | -8% | 5%
Cc1ccc(Cl)cc1N1CCN(C(=O)c2cc(S(=O)(=O)N3CCC(C)CC3)cn2C)CC1 | -6.0% | nt | ? | nt | -16% | -5%[46.1 µM] | nt | nt
O=C(CSc1nc2cc(Cl)c(Cl)cc2[nH]1)c1ccc2c(c1)OCO2 | nt | -1% | nt | -28% | 6% | 11% | 0% | 6%
O=C(c1cc2ccccc2o1)N(C1CC1)C1(C(=O)Nc2ccccc2)CCCC1 | nt | -26% | nt | ? | ? | nt | 17% | nt
COc1ccc(-c2nnc(SCC(=O)NCc3ccc(C)cc3)nc2-c2ccc(OC)c(OC)c2)cc1OC | 0.9% | nt | -13% | nt | 0% | ? | nt | nt
Cc1ccc(S(=O)(=O)NC(=O)Nc2nnc(C3CC3)s2)cc1 | -0.4% | 0% | 14% | 14% | -13% | -5% | 0%[3.69 µM] | -2%
COC(=O)c1nn(-c2nc(-c3cccc(OC)c3)cc(C(F)(F)F)n2)cc1[N+](=O)[O-] | nt | 0% | nt | 5%[46.1 µM] | -21% | 9%[46.1 µM] | -8% | nt
O=C(NC1=NCCS1)c1cc(Cl)ccc1Cl | nt | -2% | nt | nt | 7% | nt | -10% | -8%
Cc1ccccc1C(=O)OCc1nnc(-c2ccc(Cl)cc2)o1 | nt | -10% | nt | ? | 3% | 16%[46.1 µM] | -19% | nt
Cc1ccc(S(=O)(=O)NNC(=O)Nc2cccc(C)c2C)c(C)c1 | nt | 26% | nt | nt | -14% | nt | 5% | 10%
CC1(C)Cc2ccccc2C(/C(=N/O)C(N)=O)=N1 | -2.6% | 2% | -4% | 3% | -26% | 28% | 11% | -8%
Cc1ccc(NC(=O)CSCC(=O)NNC(=O)c2nn(C)c(=O)c3ccccc23)cc1 | nt | -3% | nt | 14% | -3% | 3% | 12% | nt
O=C(Nc1ccc(Br)cc1)/C(=C/c1cccc([N+](=O)[O-])c1)NC(=O)C1CCCCC1 | 2.3% | -9% | -27% | ? | 18% | -13% | -3% | 1%
CCc1ccc2[nH]c(=O)c(C(c3nnnn3CCOC)N3CCN(c4ccc(F)cc4)CC3)cc2c1 (stereo not drawn) | -1.6% | 2% | ? | ? | -3% | ? | -6% | -11%
O=C(COc1ccccc1)Nc1ccc2c(c1)nc1n2CCSC1 | -0.7% | 1% | -18% | 11% | 29% | 13% | -9% | 6%
Cc1ccccc1-n1nnnc1SCC(=O)Nc1ccc(S(=O)(=O)N2CCCC2)cc1 | -3.5% | -1% | 23% | ? | ? | -21% | 11% | -2%
COCCCNC(=O)c1ccc(-n2c(-c3ccccc3)cc3c2CCCC3)cc1 | -2.1% | nt | 11% | nt | 0% | 19%[46.1 µM] | nt | nt
CCCn1nc2cc(C(=O)NCc3ccc4c(c3)OCO4)ccc2c1OCC | -1.1% | 8% | -5% | nt | 5% | nt | 21% | -6%
O=C(O)CSC1CC(=O)N(c2ccc(Br)cc2)C1=O (stereo not drawn) | nt | -12% | nt | nt | -3% | nt | ? | -6%
O=C1C(SC(F)(F)C(F)F)=C(C(F)(F)F)OC2C3C=CC(C3)C12 (stereo not drawn) | 2.0% | -3% | -4% | -32% | -29% | 1% | 0% | 2%
Cc1ccccc1C(=O)Nc1cccc(NC(=O)c2cccnc2)c1 | nt | -12% | nt | ? | -14% | -8% | 13% | 6%
Cc1ccc(NC(=O)c2ccccc2NS(=O)(=O)c2ccc(F)cc2)cc1S(=O)(=O)N1CCCCC1 | -12% | 0% | ? | ? | ? | ? | 21% | 25%
Cn1cccc1C(=O)NC(=O)COC(=O)c1ccccc1Sc1ccccc1C#N | 1.2% | -2% | ? | 29% | 2% | 3% | 1% | 1%
Clc1ccccc1Cn1nnc2c(Nc3ccccc3)ncnc21 | -8.0% | -1% | 6% | -12% | -3% | ? | 19% | -14%
COc1cc(NC(=O)c2ncn[nH]2)cc(OC)c1OC | 0.7% | 15% | -10% | 15% | 9% | -16% | -1% | 10%
O=C(NN1C(=O)NC2(CCCCC2)C1=O)c1ccc(-c2ccc(Cl)cc2)o1 | nt | -1% | nt | 13% | ? | -8% | -2% | nt
Cc1nnc(SCCn2c(N3CC(C)CC(C)C3)nc3c2c(=O)n(C)c(=O)n3C)s1 (stereo not drawn) | 7.3% | -5% | -2% | -1% | -16% | 11% | 20% | -1%
COc1cc(NS(=O)(=O)c2ccc(NS(=O)(=O)c3ccccc3)cc2)nc(OC)n1 | -2.1% | 5% | -3% | 1% | -13% | ? | -6% | 1%

Record cards, from the list above. Order of screens: Cruzain Triton | SARS PLpro yeast | Cruzain inh noDet | MARV entry inh | StopGo reporter | LASV entry inh | RE007 growth inh | NS1 inh
Shown for Cn1cccc1C(=O)NC(=O)COC(=O)c1ccccc1Sc1ccccc1C#N : 1.2% | -2% | ? | 29% | 2% | 3% | 1% | 1%
Shown for CC1(C)Cc2ccccc2C(/C(=N/O)C(N)=O)=N1 : -2.6% | 2% | -4% | 3% | -26% | 28% | 11% | -8%
Shown for O=C(c1cc2ccccc2o1)N(C1CC1)C1(C(=O)Nc2ccccc2)CCCC1 : nt | -26% | nt | ? | ? | nt | 17% | nt

Ordered by molecular weight (ascending): part of the list above.
SMILES | Cruzain Triton | SARS PLpro yeast | Cruzain inh noDet | MARV entry inh | StopGo reporter | LASV entry inh | RE007 growth inh | NS1 inh
O=C(NC1=NCCS1)c1cc(Cl)ccc1Cl | nt | -2% | nt | nt | 7% | nt | -10% | -8%
O=C1C(SC(F)(F)C(F)F)=C(C(F)(F)F)OC2C3C=CC(C3)C12 (stereo not drawn) | 2.0% | -3% | -4% | -32% | -29% | 1% | 0% | 2%
Cc1nnc(SCCn2c(N3CC(C)CC(C)C3)nc3c2c(=O)n(C)c(=O)n3C)s1 (stereo not drawn) | 7.3% | -5% | -2% | -1% | -16% | 11% | 20% | -1%

In the list so far, two have bromine:
SMILES | Cruzain Triton | SARS PLpro yeast | Cruzain inh noDet | MARV entry inh | StopGo reporter | LASV entry inh | RE007 growth inh | NS1 inh
O=C(Nc1ccc(Br)cc1)/C(=C/c1cccc([N+](=O)[O-])c1)NC(=O)C1CCCCC1 | 2.3% | -9% | -27% | ? | 18% | -13% | -3% | 1%
O=C(O)CSC1CC(=O)N(c2ccc(Br)cc2)C1=O (stereo not drawn) | nt | -12% | nt | nt | -3% | nt | ? | -6%
